Sa growth inh: S. aureus growth inhibition at 42 and 30 °C, primary screen, LtaS inhibitor project, RN4220, two temperatures; OD600, 20 h, 42 °C; hits give low values; relative growth, % (no concentration beside the values); 170,000 compounds, 0.53% hits; AID 720641, 2013;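 active means growth at 42 °C up to 50% and 20 or more points under that at 30 °C, or under 10% at both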;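 further: 300 nL library stock went into each well; scaled to the means of positive and negative controls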
GIV-Gai inh: inhibitors of GIV peptide binding to Galpha-i3, primary screen, biochemical, fluorescence polarization, FITC-GIV GBA peptide, rat Galphai3; percent of control (FP), % (no concentration beside the values); Guanine nucleotide-binding protein G(i) subunit alpha-3 (Rattus norvegicus), P08753; AID 1224905, 2016; 90 min; hits give low values; scaled: aluminum fluoride 0%, vehicle 100%; 210,000 compounds, 0.42% hits;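 active means replicate mean at 85% of control or lower, very high polarization wells dropped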;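 further: wells of about 15 µL received 100 nL stock; the first replicate is given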
Target sequence (P08753 whole entry, looked up): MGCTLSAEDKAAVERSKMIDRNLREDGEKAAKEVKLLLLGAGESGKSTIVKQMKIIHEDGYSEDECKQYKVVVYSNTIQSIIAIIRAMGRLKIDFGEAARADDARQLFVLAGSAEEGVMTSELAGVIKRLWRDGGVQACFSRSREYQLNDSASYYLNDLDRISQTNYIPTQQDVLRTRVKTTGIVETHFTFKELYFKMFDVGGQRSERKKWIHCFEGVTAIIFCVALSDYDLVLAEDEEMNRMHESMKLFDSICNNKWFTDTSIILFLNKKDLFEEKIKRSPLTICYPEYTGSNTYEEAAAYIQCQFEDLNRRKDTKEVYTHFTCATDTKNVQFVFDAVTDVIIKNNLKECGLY
HCMV UL50-53 inh: inhibitors of HCMV UL50-UL53 interaction, biochemical, HTRF | HCMV UL50-UL53 nuclear egress complex (human cytomegalovirus) | normalized percent inhibition | inhibition, % (no concentration beside the values) | 190,000 compounds, 0.15% hits | AID 1918969, 2023;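 active means both replicates at 50% or more, plus weaker picks with an unusually low signal ratio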;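 further: stock transfer was 100 nL into about 20 µL; 0% = negative control wells and 100% = wells with untagged competitor protein; inactives centre near -12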
Sa growth inh second temp: recorded beside Sa growth inh, whose call it bears; relative growth, %; measured here: growth at 30 °C;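 optical density after 20 h as mean of two plates; 100% = untreated growth and lower means inhibition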
* hit, by the source's call; / = not tested or not shown; & = joins results of further samples.

[1] CCOC(=O)c1ccc(N=C2SC(C(=O)Nc3ccc(OCC)cc3)CC(=O)N2C)cc1 (stereo unspecified)
[2] Cc1cccc(N2C(=O)CSC23CCCCC3)c1
[3] CC1CN(c2nc3ccccc3nc2C(C#N)C#N)CC(C)O1 (stereo unspecified)
[4] O=c1cc(Nc2ccc(OC(F)(F)F)cc2)c2ccccc2o1
[5] COc1ccc(-c2nc3ccccc3n2C(=O)c2ccccc2C(=O)O)cc1OC
[6] O=C(OCCN1CCCC1=O)c1ccco1
[7] COc1ccc(CCNC(=O)C(C)n2nc(C)c3sc4ccccc4c3c2=O)c(OC)c1 (stereo unspecified)
[8] COC(=O)c1ccc(C)c(NC(=O)c2nsc3ccccc23)c1
assay / entry	1	2	3	4	5	6	7	8
Sa growth inh	/	96	100	101	81	108	110	/
Sa growth inh second temp	/	98	99	113	76	93	87	/
GIV-Gai inh	105	113	/	99	106	/	105	106
HCMV UL50-53 inh	-17	-14	-52	0	/	0	-13	-15

[9] Cc1ccc(S(=O)(=O)NC2CCOC(C)(C)C2)cc1 (stereo unspecified)
[10] O=C(O)CCCCCn1c(SCC(=O)c2ccc(O)c(O)c2)nc2ccsc2c1=O
[11] C=C(C)C1=NC(C)(C)CC(C)O1 (stereo unspecified)
[12] CCc1cccc(NC(=O)C2CCCN2S(=O)(=O)c2ccc3c(c2)n(C)c(=O)c(=O)n3C)c1 (stereo unspecified)
[13] c1csc(-c2noc(CN3CCOCC3)n2)c1
[14] O=C(N1CCCC1)C12CC3CC(CC(C3)C1)C2
[15] CCCCn1cc(S(=O)(=O)c2ccc(OC)cc2)c(=O)c2cc(F)c(N3CCCC3)cc21
[16] O=C(NCc1ccccc1Cl)C1CCCN(C(=O)c2cnn(-c3ccc(F)cc3)c2-n2cccc2)C1 (stereo unspecified)
assay / entry	9	10	11	12	13	14	15	16
Sa growth inh	128	110	107	88	100	96	96	79
Sa growth inh second temp	95	43	88	92	83	91	98	86
GIV-Gai inh	106	96	/	97	100	113	105	100
HCMV UL50-53 inh	/	-52	1	0	-18	-2	/	/

Entries listed so far with a COOH group:
[5] COc1ccc(-c2nc3ccccc3n2C(=O)c2ccccc2C(=O)O)cc1OC
[10] O=C(O)CCCCCn1c(SCC(=O)c2ccc(O)c(O)c2)nc2ccsc2c1=O
assay / entry	5	10
Sa growth inh	81	110
Sa growth inh second temp	76	43
GIV-Gai inh	106	96
HCMV UL50-53 inh	/	-52

Next section.
[17] COc1cc(NC(=O)c2cc3ccccn3n2)cc(OC)c1OC
[18] C#CCNCc1ccco1
[19] CC(C)N(C(=O)c1ccc(-c2ccccc2F)cc1)C(C)C
[20] COc1ccc(-n2nc(C(=O)NCc3ccc4c(c3)OCO4)c(=O)n(C)c2=O)cc1
[21] COC(=O)Cc1c(C)nc2nc[nH]n2c1=O
[22] COc1cc(OC)c(OC)cc1CN1CCN(C(=O)c2ccco2)CC1
[23] COc1ccc(-c2nc(CS(=O)CC(=O)NCCc3ccccc3)c(C)o2)cc1OC (stereo unspecified)
[24] O=C(OCC(=O)N1CCCCC1)c1cc2ccccc2oc1=O
assay / entry	17	18	19	20	21	22	23	24
Sa growth inh	80	93	98	/	94	88	98	94
Sa growth inh second temp	85	83	86	/	85	89	87	98
GIV-Gai inh	105	102	103	109	100	/	107	/
HCMV UL50-53 inh	/	-17	-37	-61	/	-2	-29	-111

[25] CCc1ccc(NC(=O)C2(c3cccs3)CCOCC2)cc1
[26] O=C(Nc1ccc2c(c1)OCO2)c1cc(-c2ccc(Br)cc2)on1
[27] O=C(NCc1ccccc1)c1cccnc1N1CCCC1
[28] COc1cc(OC)cc(C(=O)N[C@H](C(=O)Nc2c(C)n(C)n(-c3ccccc3)c2=O)C(C)C)c1
[29] NC(=O)C1CCN(C(=O)c2ccc3nc(N4CCCCC4)sc3c2)CC1
[30] CC(C(=O)Nc1cc(C(F)(F)F)ccc1Cl)n1nnc2sc3c(c2c1=O)CCCC3 (stereo unspecified)
[31] Cc1ccc(-c2nn3c(=O)cc(CNC(=O)Nc4cc(Cl)ccc4C)nc3s2)cc1
[32] Cn1c(=O)c2c(nc(CN3CCN(CCO)CC3)n2CCCc2ccccc2)n(C)c1=O
assay / entry	25	26	27	28	29	30	31	32
Sa growth inh	107	106	113	98	101	104	/	99
Sa growth inh second temp	99	93	93	86	87	91	/	75
GIV-Gai inh	99	105	113	/	102	96	103	103
HCMV UL50-53 inh	/	2	31	-10	/	-15	-6	-5

[33] CCOc1ccc(C2C(C(=O)Nc3ccccc3C)=C(C)Nc3nnnn32)cc1 (stereo unspecified)
[34] Cc1cc(C(=O)N(C)c2c(N)n(Cc3ccccc3)c(=O)[nH]c2=O)c(C)o1
[35] Cc1cc(NC(=O)Nc2cccs2)no1
[36] CC12CC[C@H](CC1=O)C2(C)C
[37] CCOC(=O)c1ccc(NC(=O)CC2Sc3ccc(C(F)(F)F)cc3NC2=O)cc1 (stereo unspecified)
[38] CC(C)c1ccc(C2c3c(-c4ccccc4O)n[nH]c3C(=O)N2Cc2ccncc2)cc1 (stereo unspecified)
[39] O=C(Cc1ccccc1)Nc1cccnc1
[40] CCOc1ccc(CNC(=O)C2CCN(C(=O)N3CC(CC)Oc4ccc(C)cc43)CC2)cc1OC (stereo unspecified)
assay / entry	33	34	35	36	37	38	39	40
Sa growth inh	72	101	89	98	108	127	96	101
Sa growth inh second temp	90	98	53	96	79	83	75	82
GIV-Gai inh	108	/	104	/	103	101	97	101
HCMV UL50-53 inh	-27	7	/	-4	-22	-6	16	-12

[41] Clc1cccc(-n2cc(-c3ccccc3)c3c(N4CCCCC4)ncnc32)c1
[42] COC(=O)c1cc2occc2n1CC(=O)Nc1ccc(C)cc1Cl
[43] Cc1cccc(N2CCN(C(=O)C3CCCN(c4nc5cccnc5s4)C3)CC2)c1C (stereo unspecified)
[44] O=C(CC(C(=O)O)N1CCN(c2ccc3c(c2)OCO3)CC1)c1ccc(C2CCCCC2)cc1 (stereo unspecified)
[45] COc1ccc(NC(=O)CC2C(=O)OCC3CCCCN32)cc1OC (stereo unspecified)
[46] COC(=O)c1ccc(C(C)N(C)C)o1 (stereo unspecified)
[47] CCOC(=O)CSc1cc(Cl)c2cccc(C)c2n1
[48] Cc1cc(C)cc(NC(=O)CN2C(=O)C(C)(C)c3ccccc32)c1
assay / entry	41	42	43	44	45	46	47	48
Sa growth inh	106	114	/	98	95	100	81	/
Sa growth inh second temp	86	91	/	73	103	90	95	/
GIV-Gai inh	100	103	107	/	/	102	/	100
HCMV UL50-53 inh	/	-34	-29	6	-13	-2	-10	0

[49] Cc1cc(C)cc(NC(=O)CC2(CC3=NS(=O)(=O)c4ccccc4N3)CCCC2)c1
[50] O=c1cc(CSc2nnc(-c3ccc4c(c3)OCO4)o2)nc2sccn12
[51] CCOC(=O)c1c(NC(=O)COc2ccc(Cl)cc2)sc(C(=O)Nc2cc(C(F)(F)F)ccc2Cl)c1C
[52] CCN(C(=O)c1cnc2scc(C)n2c1=O)c1ccccc1
[53] S=C(NCC1COc2ccccc2O1)NC1CCCCC1 (stereo unspecified)
[54] COc1ccc(OC)c(CCNC(=O)c2c(C)nn(-c3ccc(F)cc3)c2-n2cccc2)c1
[55] CCCc1cc(=O)oc2cc(C)c3c(-c4ccccc4)c(C)oc3c12
[56] CCOc1ccc(NC(=O)NC(c2ccccc2)c2nnc(-c3ccccc3)o2)cc1 (stereo unspecified)
assay / entry	49	50	51	52	53	54	55	56
Sa growth inh	/	/	/	100	65	115	111	/
Sa growth inh second temp	/	/	/	102	69	100	80	/
GIV-Gai inh	99	104	98	102	/	106	105	98
HCMV UL50-53 inh	-34	-81	-12	5	10	/	-25	-11

Reformatted with each value named: 2 of the compounds above
#53 S=C(NCC1COc2ccccc2O1)NC1CCCCC1 (stereo unspecified)
  Sa growth inh: 65 | Sa growth inh second temp: 69 | GIV-Gai inh: / | HCMV UL50-53 inh: 10
#54 COc1ccc(OC)c(CCNC(=O)c2c(C)nn(-c3ccc(F)cc3)c2-n2cccc2)c1
  Sa growth inh: 115 | Sa growth inh second temp: 100 | GIV-Gai inh: 106 | HCMV UL50-53 inh: /

Following part
[57] CCCCc1nn2c(=O)cc(COC(=O)c3cccc(OC)c3)nc2s1
[58] CCc1ccc(N=Cc2c(O)[nH]c(=S)[nH]c2=O)cc1
[59] CCOC(=O)c1sc(N2C(=O)c3oc4ccc(F)cc4c(=O)c3C2c2ccc(O)cc2)nc1C (stereo unspecified)
[60] COC(=O)c1ccc(COc2c(I)cc(Cl)c3cccnc23)o1
[61] COc1c(Br)csc1C(=O)NN
[62] Cc1ccccc1NC(=O)C1c2cccc[n+]2CC(=O)N1Cc1ccc2c(c1)OCO2 (stereo unspecified)
[63] CCOC(=O)c1ccc(NC(=O)CC(C)(C)CC(=O)O)cc1
[64] Cc1nc(-c2cc(S(=O)(=O)N3CCC(C(=O)NCCc4nc5ccccc5[nH]4)CC3)c(C)s2)no1
assay / entry	57	58	59	60	61	62	63	64
Sa growth inh	98	81	93	84	107	94	102	/
Sa growth inh second temp	100	103	92	94	94	97	98	/
GIV-Gai inh	108	109	102	/	101	106	104	108
HCMV UL50-53 inh	/	/	2	-11	-14	/	3	-8

[65] COc1ccc(CNC(=O)c2cnn3c(C)c(Cc4c(F)cccc4Cl)c(C)nc23)cc1
[66] Cc1cc(C(=O)OC(C)C(=O)Nc2ccc(Oc3ccccc3)cc2)c(C)o1 (stereo unspecified)
[67] CC(SCC(=O)NC1CCCCCC1)c1nc2ccccc2c(=O)[nH]1 (stereo unspecified)
[68] CC(=O)NC(=O)c1cc2ccc(OC(C)=O)cc2oc1=Nc1ccc(Cl)cc1Cl
[69] Cc1ccc(-n2c(C)c(C)c(C#N)c2N)cc1
[70] CCOC(=O)c1nc2c3c4c(sc3ncn2n1)COC(C)(C)C4
[71] CCc1nc(C)ccc1O
[72] Cc1[nH]c(=O)c(C#N)cc1-c1ccncc1
assay / entry	65	66	67	68	69	70	71	72
Sa growth inh	102	106	106	/	67	104	87	88&91
Sa growth inh second temp	85	107	98	/	88	102	107	90&86
GIV-Gai inh	102	/	/	172	/	108	99	103&104
HCMV UL50-53 inh	/	6	-4	-35	14	5	-56	-45&-6&-76&-38&-10

[73] CCCCC(Sc1nc2cc3c(cc2c(=O)n1CCCC(=O)NCc1ccc2c(c1)OCO2)OCO3)C(=O)OCC (stereo unspecified)
[74] Cc1cccc(C)c1Nc1c(-c2ccc(N(C)C)cc2)nc2ncccn12
[75] CC(Oc1ccc(C(=O)c2ccccc2)cc1)C(=O)NN (stereo unspecified)
[76] COc1cccc2c1Oc1ncccc1N(C(=O)Nc1ccc(F)c(Cl)c1)C2
[77] COc1cc(C2C3=C(CC(C)(C)CC3=O)OC3=C2C(=O)CC(C)(C)C3)ccc1OCC(=O)O
[78] CC(=O)N1CCSc2ccc(S(=O)(=O)Nc3cccc(C)c3C)cc21
[79] COc1ccc(C(CC(=O)NCc2cccs2)n2cccc2)cc1 (stereo unspecified)
[80] Cc1c(C#N)c(NC(=O)c2ccc(Cl)cc2)n(CC2CC2)c1C
assay / entry	73	74	75	76	77	78	79	80
Sa growth inh	90	/	71	109	/	/	102	98
Sa growth inh second temp	92	/	90	96	/	/	89	85
GIV-Gai inh	107	116	/	100&107	104	108	103	106
HCMV UL50-53 inh	/	-26	-26	0	9	-10	-23	-20

[81] COc1ccc(CCNC(=O)CCCn2c(=O)c3cccn3c3ccccc32)cc1OC
[82] CCOC(=O)c1c(NC(=O)c2nc(S(C)(=O)=O)ncc2Cl)sc(C(C)=O)c1C
[83] O=C(CC12CC3CC(CC(C3)C1)C2)N1CCCC1
[84] CNC(=O)c1nn(-c2ccccc2)c(=O)cc1OC
[85] COC(=O)c1cnc2c(C(F)(F)F)cccc2c1OC
assay / entry	81	82	83	84	85
Sa growth inh	94	100	85	/	98
Sa growth inh second temp	62	58	81	/	96
GIV-Gai inh	101	105	100	102	106
HCMV UL50-53 inh	-27	-11	/	9	11

High-throughput results: PubChem, ICCB-Longwood Screening Facility, Harvard Medical School
